Six1-Eya2 blk: inhibitors of human Six1/Eya2 interaction; activity change, % (no concentration beside the values); 360,000 tested, 0.56% active; AlphaScreen GST-Six1/His-Eya2 binding, biochemical; hits give low values; control for the full effect not named in the record; Q15475+O00167; in the data active = activity change below about -65%; inconclusive = about -30% to -65%; inactive = above about -30%; further: on the % scale 0 is the no-effect control and ±100 the full control effect; compound concentration not given in the record
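GST-Six1 + His-Eya2 (5X stock: 250/500 nM); Tris pH 8.0, 300 mM NaCl, 0.05% BSA, 0.02% Tween 20; GSH donor/Ni acceptor beads; 1 h 37 °C dark; AlphaScreen readout.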
D2 PAM: human D2 receptor positive allosteric modulation | P14416 | DiscoveRx D2 beta-arrestin cells, luminescence, 90 min; 100% = 57 uM dopamine signal | potentiation, % (concentration not given with the values) | 360,000 tested, 0.23% active | AID 624464; active = potentiation of 50% or more; inconclusive = 30% to 50%; inactive = 30% or less;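 further: compound concentration not given in the record; tested on top of an EC20 dose of dopamine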
Target sequence (P14416 whole entry, looked up): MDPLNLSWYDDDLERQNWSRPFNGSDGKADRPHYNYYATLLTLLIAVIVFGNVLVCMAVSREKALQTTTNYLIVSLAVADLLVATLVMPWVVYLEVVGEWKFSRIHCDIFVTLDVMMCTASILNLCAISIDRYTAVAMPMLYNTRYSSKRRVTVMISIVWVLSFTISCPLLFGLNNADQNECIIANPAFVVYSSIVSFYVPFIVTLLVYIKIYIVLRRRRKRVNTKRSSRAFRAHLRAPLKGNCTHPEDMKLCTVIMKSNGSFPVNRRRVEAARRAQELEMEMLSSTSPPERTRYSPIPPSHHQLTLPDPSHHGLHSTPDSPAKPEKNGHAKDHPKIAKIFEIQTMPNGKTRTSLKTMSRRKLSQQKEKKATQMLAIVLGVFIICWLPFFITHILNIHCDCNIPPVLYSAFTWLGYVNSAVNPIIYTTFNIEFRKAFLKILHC
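D2 cells co-treated with compound plus 50 nM dopamine (EC20) for 90 min at 37 deg C to detect potentiation. Beta-arrestin recruitment was read as enzyme-fragment luminescence after 1 h at ambient temperature. Full response was set by 57 uM dopamine.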
PINK1 modulator: modulators of PINK1 expression; PINK1 immunofluorescence, high-content cytometry, 24 h; Potency, µM (top dose mostly 76.6 µM), without a hit: top-dose activation (PINK1 increase), hits mostly activators; 410,000 tested, 0.2% active; AID 624263; active = well fitted activation curve with a large enough effect; inconclusive = small, poorly fitted or top-dose-only effect; inactive = flat fitted curve, though single readings scatter; cell line not stated here;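 further: potency means the concentration at half of the fitted maximal effect; % of control where 0% means no effect; nearly all actives have a fitted effect of over 65% in size; a mitochondrial uncoupler was the plate control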
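Measures PINK1 amount and localization on or inside mitochondria by immunofluorescence. Stable cells get compounds at 5 concentrations for 24 hours before fixation and staining; CCCP controls included.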
TRPML1 ag: activates the human TRPML1 channel; Q9GZU1; TRPML1-expressing cells, Ca2+ dye fluorescence, FDSS; host cell line not named in the record; reference of the full effect not given here; activation, % (test concentration not listed); 410,000 tested, 0.12% active; AID 624414; in the data active = activation above about 50%; inconclusive = about 30% to 50%; inactive = below about 30%; further: 0% is about no effect; the text of the record puts the active cut at 80%
Target sequence (Q9GZU1 whole entry, looked up): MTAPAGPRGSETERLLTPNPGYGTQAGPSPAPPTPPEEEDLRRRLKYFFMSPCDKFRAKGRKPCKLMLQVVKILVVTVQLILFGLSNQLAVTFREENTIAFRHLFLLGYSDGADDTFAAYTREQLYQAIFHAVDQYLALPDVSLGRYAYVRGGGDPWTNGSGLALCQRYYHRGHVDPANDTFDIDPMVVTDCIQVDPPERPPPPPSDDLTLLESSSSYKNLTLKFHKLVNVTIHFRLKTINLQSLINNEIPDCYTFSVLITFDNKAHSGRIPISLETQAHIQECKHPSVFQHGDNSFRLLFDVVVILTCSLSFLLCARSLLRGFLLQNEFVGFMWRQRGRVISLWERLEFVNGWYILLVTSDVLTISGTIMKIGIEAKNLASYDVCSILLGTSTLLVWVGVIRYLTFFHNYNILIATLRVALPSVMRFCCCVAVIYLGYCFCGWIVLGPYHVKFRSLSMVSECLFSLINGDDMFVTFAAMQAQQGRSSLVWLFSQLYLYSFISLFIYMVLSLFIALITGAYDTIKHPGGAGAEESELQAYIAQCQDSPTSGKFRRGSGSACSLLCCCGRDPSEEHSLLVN
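In this qHTS format, compounds were pin-transferred onto Ca8-dye-loaded TRPML1-DL cells induced with Tet overnight, and intracellular Ca2+ fluorescence was recorded kinetically for 110 s after a 10 s baseline. A subsequent 4uM final 54-4 (EC80) addition followed by a second 110 s read served as the antagonist phase.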
D2 agonist: human D2 receptor agonism in beta-arrestin assay | 360,000 tested, 0.084% active | DiscoveRx PathHunter D2 beta-arrestin, luminescence, 90 min; 100% = 57 uM dopamine signal | AID 624465 | activation, % (test concentration not listed) | P14416; in the data active = activation above about 40%; inconclusive = about 15% to 40%; inactive = below about 15%; further: compound concentration not given in the record; the text of the record calls up to 30% inactive
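Agonist mode: compounds alone added to overnight-plated D2 PathHunter cells for 90 min at 37 C, with 57 uM final dopamine (EC100) defining full response. Beta-arrestin recruitment detected by chemiluminescent reagent, read after 1 h at ambient temperature.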
CtBP-E1A blk: CtBP/E1A binding inhibition; activity change, % (test concentration not listed); 340,000 tested, 0.49% active; AlphaScreen GST-E1A/His-CtBP binding, 1536-well; hits give low values; control for the full effect not named in the record; in the data active means activity change below about -65%; inconclusive means about -30% to -65%; inactive means above about -30%; further: on the % scale 0 is the no-effect control and ±100 the full control effect; compound concentration not given in the record
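In 5 uL wells, 23 nL compound meets equimolar GST-E1A and His-CtBP (5X stock 125 nM each) for 2 h, 37 °C. Beads (5X, 50 ug/mL) then 1 h, 37 °C, dark.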
Numbers without * were called inactive; ? = inconclusive; · = not tested or not shown; [ ] = remark or other dose.

smiles | TRPML1 ag | D2 agonist | Six1-Eya2 blk | PINK1 modulator | D2 PAM | CtBP-E1A blk
CCOC(=O)c1ccc(N=Cc2nc(-c3ccccc3)oc2OC(C)=O)cc1 | 0.1 | -0.3 | -2 | 2.1% | -8 | 3
CCO[C@@H]1OC(C(=O)NCc2ccccc2)=C[C@H](c2ccccc2)[C@H]1CCCO | -0.5 | -3.9 | 9 | -0.7% | -8 | -12
CC(C)(C)C1CCC(C(=O)Nc2nccs2)CC1 (stereo unspecified) | -0.6 | 0.0 | -6 | 5.7% | 5 | ·
Cc1ccc2cc(C#N)c(SCC(=O)NNC(=O)Cc3ccccc3)nc2c1 | -0.7 | -4.9 | -1 | 10% | 19 | 10
O=C(O)CCN1c2ccccc2Sc2ccccc21 | -0.4 | -2.4 | -2 | 0.3% | 3 | ·
Cc1cc(C(=O)Nc2ccccc2)oc1C | -0.3 | -7.8 | 0 | -2.1% | -7 | 14
COCCn1c(C)cc(/C=C2/SC(=O)N(C(C)C(=O)OC)C2=O)c1C (stereo unspecified) | 1.0 | -5.5 | -12 | -0.6% | -16 | -10
O=C(Nc1cccc(/C=C/c2nc3ccccc3c(=O)[nH]2)c1)c1ccccc1Cl | 1.8 | -1.4 | -6 | -1.1% | -1 | -2
O=C(N/N=C/c1ccc2c(c1)OCCO2)c1ccncc1 | 1.9 | 5.0 | -8 | -0.5% | 1 | 4
O=[N+]([O-])c1cc(S(=O)(=O)C(F)(F)F)ccc1NCC1CCCO1 (stereo unspecified) | -1.0 | 5.7 | -13 | 0.2% | 11 | 0
COc1ccc(-c2csc(NC(=O)C3CC(=O)N(Cc4ccco4)C3)n2)cc1 (stereo unspecified) | 1.6 | 0.8 | -10 | 1.9% | -3 | ·
CCCc1nnc(NC(=O)C2CCN(C(=O)C3CC(=O)N(c4ccc(C)cc4)C3)CC2)s1 (stereo unspecified) | -0.4 | 2.8 | -2 | 0.3% | -6 | -7
Cn1nc(C(C)(C)C)cc1C(=O)NNC(=O)c1ccc(C(F)(F)F)cc1 | -0.5 | 0.1 | -4 | 3.5% | -19 | ·
COC(=O)c1cc([N+](=O)[O-])c(-n2cncn2)c([N+](=O)[O-])c1 | 0.2 | -7.7 | 13 | 1.5% | -11 | ·
O=C(CC[C@H]1O[C@@H](n2ccc(=O)[nH]c2=O)[C@H](O)[C@@H]1O)N[C@H](Cc1ccccc1)C(=O)NCc1ccccc1 | -0.1 | -3.8 | 3 | 0.4% | -6 | 2
COc1ccc(/C=N/NC(=O)COc2cc(C)cc(C)c2)cc1COC(C)=O | 3.0 | -4.5 | 8 | 24% | 4 | -7
N#Cc1ccc(NCC(=O)N2CCN(S(=O)(=O)c3ccccc3)CC2)cc1 | 0.6 | 7.4 | 17 | -1.7% | -1 | 0
Cc1ccc(S(=O)(=O)N2CCN(C(=O)CN3C(=O)NC4(CCCCC4)C3=O)CC2)c(C)c1 | 0.2 | -2.9 | 7 | 2.4% | 8 | 1
COc1ccc(C(=O)/C=C2\NCCc3cc(OC)c(OC)cc32)cc1OC | 1.2 | 4.9 | -4 | 5.2% | -10 | ·
O=C(CN1C(=O)c2cccnc2Oc2ccc(Cl)cc21)NCCC1=CCCCC1 | -2.0 | 4.0 | 0 | 0.3% | -7 | 6
O=C(NCCc1ccc2c(c1)OCCO2)c1cc(S(=O)(=O)N2CCCC2)ccc1Br | 2.4 | 3.8 | 3 | 0.3% | -3 | 0
CCCC(C(=O)NC(C)(C)C)N(CC1CCCO1)C(=O)CNS(=O)(=O)c1ccc(F)cc1 (stereo unspecified) | 0.1 | -1.4 | 0 | 0.0% | -4 | 6
CCCNC(=O)C1(C)CCN(C(=O)c2c(F)ccc(C)c2F)C1 (stereo unspecified) | -0.3 | -0.1 | 9 | 1.4% | 1 | -8
NC(=O)C1CCN(CC(=O)Nc2cccnc2Cl)CC1 | 0.5 | -2.3 | 7 | 0.2% | -8 | 6
O=C(CCCN1C(=O)c2ccccc2C1=O)Nc1cccnc1 | -0.1 | -2.0 | 2 | -0.1%[38.3 µM] | -11 | -9
CC1(C)Cc2c(sc3c2c(=N)n(Cc2ccco2)c(=O)n3CC(=O)Nc2cccc(Cl)c2)CO1 | 1.7 | -1.5 | -22 | -1.6% | -11 | -8
Cc1ccc(S(=O)(=O)N2CCCCC2)cc1NC(=O)COC(=O)c1c(F)cccc1F | 2.5 | -4.7 | -2 | -1.2% | 12 | 4
COc1ccc(-c2ccc(/C=C3/C(=N)N4C(C)=CSC4=NC3=O)o2)c([N+](=O)[O-])c1 | -0.6 | -4.0 | -20 | ? | -20 | -7
Cc1cccc(-n2c(O)c(C=Nc3ccccc3O)c3ccccc3c2=O)n1 | 2.2 | -3.3 | -5 | 1.2% | -9 | -13
O=[N+]([O-])c1ccc(N2CCN(C(=S)NC3CCCCC3)CC2)cc1 | 1.0 | 0.7 | -17 | -2.7% | -6 | -24
O=C(Nc1cccc(Cl)c1)c1cc(S(=O)(=O)N2CCCCC2)c[nH]1 | -0.5 | -6.8 | 3 | 0.8% | -4 | 2
CCc1ccc(N2CC(C(=O)Nc3cc(C)on3)CC2=O)cc1 (stereo unspecified) | 0.6 | -0.5 | -13 | -0.2% | -3 | -6
Cc1nn(C)cc1CN(C)C(=O)c1cc2nc(-c3ccco3)cc(C(F)(F)F)n2n1 | -1.5 | 1.6 | -1 | 4.6% | ? | -1
CCOCCCNC(=S)N1C2CCC1CC(NC(=O)Nc1ccc(C(=O)OCC)cc1)C2 (stereo unspecified) | 0.0 | 0.1 | -14 | 0.5% | 4 | 1
COc1ccc(-n2c(=O)/c(=C\c3cccs3)s/c2=C(/C#N)C(=O)NCCN2CCOCC2)cc1 | 6.1 | -1.8 | -3 | 5.7% | 4 | 5
COC(C[C@H](O)CC(=O)[C@H](C)OCc1ccccc1)OC | -0.7 | -5.3 | 2 | 0.4% | -5 | -3
CCN(CC)CCCn1c2c(c(SCC(=O)Nc3cc(OC)cc(OC)c3)nc1=O)CCC2 | 1.7 | 0.3 | -9 | -4.0% | -8 | 1
Cc1ccc2cc(COC(=O)c3cccc([N+](=O)[O-])c3)c(=O)[nH]c2c1 | · | -4.2 | 1 | 0.4% | -13 | -2
Cc1nnc(N/N=C\c2ccc(-c3cccc(C(=O)O)c3)o2)n1N | 0.9 | -7.5 | ? | 2.3% | -9 | -24
Cc1ccc2c(c1)NC(=O)C(CC(=O)NCCN(C)C)O2 (stereo unspecified) | 0.5 | -7.1 | 9 | 0.4% | -5 | 5
Cc1cc(C)c(NC(=O)CCN2C(=O)c3ccccc3S2(=O)=O)c(C)c1 | -0.8 | -2.0 | -3 | -2.1% | -1 | 11
CC(=O)c1cccc(NC=C2C(=O)OC3(CCCCC3)OC2=O)c1 | 0.4 | 3.9 | 2 | -0.4% | -12 | -8
CCCc1cc(=O)[nH]c(SCC(=O)N2CCc3ccccc3C2)n1 | 1.5 | -3.7 | 2 | 2.8% | 0 | 5
CCOC(=O)/C(C#N)=C/c1c(Oc2cccc(C)c2)nc2c(C)cccn2c1=O | -0.4 | -3.1 | -2 | 3.3% | 6 | -1
CC(C)Oc1ccc(NC(=O)Oc2ccccc2)cc1 | 0.2 | -2.4 | -9 | 16%[38.3 µM] | -13 | -23
COc1ccc([C@H]2/C=C\CN(S(=O)(=O)/C=C/c3ccccc3)[C@@H](C)C(=O)N2Cc2ccc(F)cc2)cc1 | 1.0 | -1.7 | -8 | -0.3% | -20 | -5
O=C1NC[C@H](CCCCN2C[C@H](Cc3ccc(O)cc3)N(CCc3ccc(O)cc3)C(=O)C2=O)N(CCc2ccccc2)C1=O | -0.5 | · | 0 | 0.5% | · | 6
O=C(NC1CC1)C1CCN(c2nc3ccccc3s2)CC1 | 1.6 | -2.5 | 0 | -0.4% | -25 | 0
CC(=O)NC1(C(F)(F)F)N=C(c2ccccc2)NC1=O (stereo unspecified) | 0.0 | -1.4 | 1 | 0.1% | -16 | -1
Cc1ccc(OCC(=O)c2cc(C)n(-c3ccccc3)c2C)c([N+](=O)[O-])n1 | 1.2 | 3.4 | ? | -1.5% | -5 | -6

The last six records of the part above come first, to join the parts:
smiles | TRPML1 ag | D2 agonist | Six1-Eya2 blk | PINK1 modulator | D2 PAM | CtBP-E1A blk
CC(C)Oc1ccc(NC(=O)Oc2ccccc2)cc1 | 0.2 | -2.4 | -9 | 16%[38.3 µM] | -13 | -23
COc1ccc([C@H]2/C=C\CN(S(=O)(=O)/C=C/c3ccccc3)[C@@H](C)C(=O)N2Cc2ccc(F)cc2)cc1 | 1.0 | -1.7 | -8 | -0.3% | -20 | -5
O=C1NC[C@H](CCCCN2C[C@H](Cc3ccc(O)cc3)N(CCc3ccc(O)cc3)C(=O)C2=O)N(CCc2ccccc2)C1=O | -0.5 | · | 0 | 0.5% | · | 6
O=C(NC1CC1)C1CCN(c2nc3ccccc3s2)CC1 | 1.6 | -2.5 | 0 | -0.4% | -25 | 0
CC(=O)NC1(C(F)(F)F)N=C(c2ccccc2)NC1=O (stereo unspecified) | 0.0 | -1.4 | 1 | 0.1% | -16 | -1
Cc1ccc(OCC(=O)c2cc(C)n(-c3ccccc3)c2C)c([N+](=O)[O-])n1 | 1.2 | 3.4 | ? | -1.5% | -5 | -6
O=C(N/N=C/c1ccc([N+](=O)[O-])o1)c1ccccc1-n1cccc1 | 1.1 | -1.9 | -5 | 15% | 9 | -24
CCCn1c(=NC(=O)CS(=O)(=O)c2ccccc2)sc2cc(S(C)(=O)=O)ccc21 | 0.6 | -5.2 | 0 | 4.1% | -11 | 5
COc1ccc(/C=N/NC(=O)c2ccc3nc[nH]c3c2)c(OC)c1OC | 0.8 | 1.4 | -1 | 3.6% | -7 | -1
CN(Cc1ccon1)Cc1cn(C)nc1-c1ccc2c(c1)OCCO2 | 0.4 | -5.3 | 6 | -0.3% | -9 | 3
O=C(Nc1ccc2nc[nH]c2c1)c1ccco1 | -0.9 | 2.1 | 0 | -1.7% | -3 | 0
O=C(O)c1ccc(NC(=O)c2ccccc2NC(=O)c2cccc(F)c2)cc1 | 0.2 | -0.9 | -10 | -1.9% | -5 | -1
C[C@]12c3[nH]c4ccccc4c3CCN1C(=O)C(CC(=O)NCc1ccco1)C[C@@H]2C(=O)N1CCOCC1 (stereo partly specified) | -0.4 | -0.4 | -1 | 0.4% | · | 2
N#CC(C(N)=O)=C1CCC2(CC1)OCCCCO2 | 0.4 | 10 | 14 | -1.7% | -9 | 3
CN(C)C(=O)N1CCC(C(=O)NCc2ccc(F)cc2Cl)CC1 | 0.4 | 0.9 | 5 | · | -1 | 5
O=C(Nc1ccc([N+](=O)[O-])cc1)C1COc2ccccc2O1 (stereo unspecified) | 0.8 | 3.9 | -8 | -1.3% | -6 | -4
O=C(NC1CCOc2ccccc21)C1CCCC1 (stereo unspecified) | 6.9 | 2.1 | 1 | -0.8% | -1 | 8

High-throughput results (PubChem)
